TRPML1 agonist = human mucolipin-1 channel agonism; Q9GZU1; TRPML1-expressing cells, Ca2+ dye fluorescence, FDSS; host cell line not named in the record; reference of the full effect not given here; activation, % (concentration not given with the values); hit rate 0.12% among 410,000; in the data active = activation above about 50%; inconclusive = about 30% to 50%; inactive = below about 30%; also: 0% is about no effect; the text of the record puts the active cut at 80%
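Calcium fluorescence on an FDSS kinetic reader gave the read-out. Tet-induced TRPML1-DL cells were plated overnight, dye-loaded (Ca8 with quencher, 45-90 min, room temperature, dark), then read 110 s after compound addition, and again 110 s after 4uM final 54-4 (EC80).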
Six1-Eya2 inh = inhibitors of human Six1/Eya2 interaction. AlphaScreen GST-Six1/His-Eya2 binding, biochemical; active compounds read low; control for the full effect not named in the record. activity change, % (test concentration not listed). hit rate 0.56% among 360,000. AID 651725; in the data active = activity change below about -65%; inconclusive = about -30% to -65%; inactive = above about -30%; also: % is scaled to controls: 0 for no effect and ±100 for the full control effect
Target sequence (O00167 whole entry, looked up): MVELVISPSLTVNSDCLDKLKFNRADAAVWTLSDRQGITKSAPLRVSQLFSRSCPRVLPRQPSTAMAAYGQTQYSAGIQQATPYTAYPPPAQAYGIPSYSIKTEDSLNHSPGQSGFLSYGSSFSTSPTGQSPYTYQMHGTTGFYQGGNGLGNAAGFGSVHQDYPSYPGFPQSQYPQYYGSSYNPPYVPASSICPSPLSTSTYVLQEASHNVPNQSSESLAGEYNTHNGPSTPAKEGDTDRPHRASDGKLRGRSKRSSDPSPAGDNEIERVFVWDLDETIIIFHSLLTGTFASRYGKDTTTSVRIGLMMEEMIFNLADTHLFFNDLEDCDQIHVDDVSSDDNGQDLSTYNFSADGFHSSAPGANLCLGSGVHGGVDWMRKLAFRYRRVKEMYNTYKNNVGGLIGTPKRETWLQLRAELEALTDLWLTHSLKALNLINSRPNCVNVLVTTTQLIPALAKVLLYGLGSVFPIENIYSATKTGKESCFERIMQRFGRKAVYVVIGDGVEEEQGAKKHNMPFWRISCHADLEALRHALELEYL
Target sequence (Q15475 whole entry, looked up): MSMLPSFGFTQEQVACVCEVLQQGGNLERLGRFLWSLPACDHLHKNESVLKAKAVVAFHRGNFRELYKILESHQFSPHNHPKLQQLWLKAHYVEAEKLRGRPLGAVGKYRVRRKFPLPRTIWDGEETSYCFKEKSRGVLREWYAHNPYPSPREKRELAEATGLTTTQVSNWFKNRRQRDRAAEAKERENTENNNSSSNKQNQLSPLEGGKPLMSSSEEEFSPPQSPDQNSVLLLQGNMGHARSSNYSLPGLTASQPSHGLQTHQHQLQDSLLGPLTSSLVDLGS
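AlphaScreen luminescence read after one hour at 37 °C in darkness. Pin-transferred compounds met GST-Six1 and His-Eya2 protein (5X stock 250 nM/500 nM) plus glutathione donor and Ni-chelate acceptor beads (5X, 50 ug/mL).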
TRPML1 inh = inhibitors of human TRPML1 channel; Q9GZU1; TRPML1-inducible cells, Ca2+ dye fluorescence, FDSS; active compounds read low; inhibition of EC80 agonist-evoked calcium signal; activity change, negative = inhibition, % (concentration not given with the values); hit rate 0.02% among 390,000; AID 624415; in the data active means activity change below about -50%; inconclusive means about -30% to -50%; inactive means above about -30%;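 also: stimulus is agonist 54-4 at its EC80 concentration; % is scaled to controls: 0 for no effect and ±100 for the full control effect; the text of the record puts the active cut at -80%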
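TRPML1-DL cells, Tet-induced overnight (~16 h, 37 °C) at 1,500 cells/well, were loaded with Ca8 no-wash dye plus quencher for 45-90 min at room temperature. Compounds were pinned during FDSS kinetic reading; agonist 54-4 at EC80 (4 uM final) then added.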
TRPV1 potentiator = potentiators of human vanilloid receptor 1 (TRPV1). hit rate 0.02% among 320,000. potentiation, % at 8.33 µM. AID 540277. TRPV1-expressing cells, Fluo-8 calcium influx, capsaicin EC20 potentiation; host cell line not named in the record; control for the full effect not named in the record; active means potentiation above 80%; inconclusive means 30% to 80%; inactive means below 30%; also: 0% is about no effect
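Fluo-8 calcium influx in TRPV1-expressing cells, kinetic read (ex 480/em 520 nm). Compound added and read 3 min for agonist activity, followed by capsaicin at EC20 final and 2 min further read for enhancement.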
CtBP-E1A inh = blocks the CtBP interaction with E1A; AlphaScreen GST-E1A/His-CtBP binding, 1536-well; active compounds read low; control for the full effect not named in the record; activity change, % (no concentration beside the values); hit rate 0.49% among 340,000; AID 651724; in the data active means activity change below about -65%; inconclusive means about -30% to -65%; inactive means above about -30%; also: % is scaled to controls: 0 for no effect and ±100 for the full control effect
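Protein mix (5X: 125 nM each GST-E1A, His-CtBP) was incubated with pinned compound 2 h at 37 deg C in dark, in 50 mM Tris pH 8.0 buffer with 300 mM NaCl. Glutathione donor and nickel acceptor beads followed; AlphaScreen signal read after 1 h.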
D2 potentiator = positive allosteric modulators of human D2 dopamine receptor | AID 624464 | hit rate 0.23% among 360,000 | DiscoveRx D2 beta-arrestin cells, luminescence, 90 min; 100% = 57 uM dopamine signal | P14416 | potentiation, % (concentration not given with the values); active = potentiation of 50% or more; inconclusive = 30% to 50%; inactive = 30% or less;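 also: compound concentration not given in the record; tested on top of an EC20 dose of dopamine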
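D2 cells co-treated with compound plus 50 nM dopamine (EC20) for 90 min at 37 deg C to detect potentiation. Beta-arrestin recruitment was read as enzyme-fragment luminescence after 1 h at ambient temperature. Full response was set by 57 uM dopamine.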
* marks the source's active call; other numbers are inactive results; ? = inconclusive; nt = not tested or not shown.

SMILES	TRPML1 agonist	Six1-Eya2 inh	TRPML1 inh	TRPV1 potentiator	CtBP-E1A inh	D2 potentiator
Nn1c(C2CCCCC2)nc2ccccc2c1=O	0.1	16	-17	2	nt	-4
O=C(Nc1ccc(Cl)cc1)Nc1nc(-c2sccc2Br)cs1	-0.5	0	-4	7	0	-7
OCCC1CN(Cc2cccc3nonc23)CCN1C1CCCCC1 (configuration not stated)	0.1	0	0	4	-10	-16
O=C(Cn1nc(C(=O)O)c2ccccc2c1=O)Nc1ccc(Br)cc1	0.7	-13	6	1	19	-10
Cc1cccc2cc(CN(Cc3cccs3)S(=O)(=O)c3ccc4c(c3)OCCO4)c(=O)[nH]c12	1.7	2	2	8	0	-18
CC(C)(C)c1ccc(C(=O)C2CCCN(C(=O)CN3CCCC3=O)C2)cc1 (configuration not stated)	0.6	0	25	-6	nt	-10
COc1ccc(S(=O)(=O)N2CCN(CC(=O)NC(Cc3ccccc3)C(C)=O)CC2)cc1 (configuration not stated)	-0.6	-4	-1	nt	nt	1
CCc1cnc(Nc2nc(C(N)Cc3ccc(Cl)cc3)cs2)nc1 (configuration not stated)	0.8	-23	nt	nt	-23	-2
Cc1ccc(S(=O)(=O)/N=C2\C=C(Nc3cccc(C(=O)O)c3)C(=O)c3ccccc32)cc1	8.4	?	19	9	?	-18
CCNC(=O)CN(c1ccccc1)S(=O)(=O)c1ccc(Cl)cc1	3.4	1	24	0	5	-8
COc1cc2cc3c(N)c(C(=O)Nc4sc(C)c(C)c4C#N)sc3nc2cc1OC	2.5	?	37	2	?	-14
COc1ccc(C=NCCc2ccc(OC)c(OC)c2)cc1OC	-0.3	-2	27	nt	-6	-15
CCOc1ccc(-c2nnc3ccc(SC(C)C)nn23)cc1	1.1	-3	57	-13	5	-6
Cc1cc(C)c(S(=O)(=O)Nc2cccc3nsnc23)c(C)c1	-1.4	-2	3	23	5	6
CN(CC(=O)Nc1cccc(F)c1)CC(=O)Nc1cc(S(=O)(=O)N2CCOCC2)ccc1Cl	0.1	-2	2	-2	-2	-13
CCSc1nnc(-c2ccncc2)o1	0.4	3	-3	-2	6	6
O=C(NCc1ccco1)/C(=C\c1cccs1)NC(=O)c1ccccc1	3.6	-4	7	-11	10	-5
CC1CCN(S(=O)(=O)c2ccc3c(ccn3CCC(=O)N3CCCCC3)c2)CC1	-0.4	6	12	-10	-15	-3
COc1ccc(N(C(=O)COc2cccc(C)c2)S(=O)(=O)c2ccc(C)cc2)cc1	-0.1	0	-9	5	8	-3
COC(=O)c1ccccc1NC(=O)Cn1c(SC)c(F)cnc1=O	-0.1	0	13	-21	5	-8
CCOc1ccc(-c2nc(N)ncc2Oc2ccccc2Br)c(O)c1	0.2	-17	-10	-7	-5	-7
O=C(NNC(=O)c1cccnc1SCc1cccc([N+](=O)[O-])c1)c1ccccn1	0.3	0	-17	19	?	-27
Cc1nc2c3ccccc3n(CC#N)c(=O)n2n1	-0.2	0	-20	nt	0	3
O=C(COC(=O)c1ccccc1NS(=O)(=O)c1ccc(Cl)cc1)NCc1ccccc1	1.1	16	21	-18	2	-13
COc1cc(CNc2ccc(O)cc2)cc(Br)c1OCc1ccccc1F	1.1	19	53	3	-16	77*
CCC(=O)NNc1cc(=O)c2c(=O)n(C)c(=O)n(C)c2[nH]1	-1.0	3	2	-9	-4	-30
Cc1nnc(N/N=C/c2ccco2)n1N	0.4	?	18	9	?	21
CCN1CCCC1CNC(=O)c1cc([N+](=O)[O-])c(N(C)C)cc1OC (configuration not stated)	0.0	2	1	?	-7	-4
O=C(c1ccco1)N1CCCN(Cc2nc(Cc3ccccc3)no2)CC1	-1.1	19	-4	-6	-2	0
c1ccc2c(c1)OC1OC2Oc2ccccc21	3.6	12	10	nt	-18	-16
O=C(C(NS(=O)(=O)c1cccs1)c1ccccc1)N1CCN(c2ccccc2F)CC1 (configuration not stated)	0.4	-3	10	-3	-9	-16
CC(C)CN(C(=O)COC(=O)c1ccc2c(c1)OCO2)c1c(N)n(Cc2ccccc2)c(=O)[nH]c1=O	2.9	4	4	0	-2	-10
COc1ccc(OC)c(N(CC(=O)N2CCCCC2)S(=O)(=O)c2ccc(OC)c(OC)c2)c1	0.0	2	21	-7	5	5
CC1CC(C)CN(S(=O)(=O)N2CCC(C(=O)NCc3ccco3)CC2)C1 (configuration not stated)	-0.3	-3	-4	18	nt	-11
O=C(COC(=O)/C=C/c1ccc(Cl)cc1)NCCc1ccccc1	1.5	0	-9	-5	-1	0
Cc1ccccc1-n1c(SCC(=O)N2CCOCC2)nc(O)cc1=O	0.1	-2	22	7	-2	-7
CCOc1ccc(NC(=O)C2CCCN2S(=O)(=O)c2ccc3c(c2)C(C)(C)C(=O)N3C)cc1 (configuration not stated)	-1.3	15	7	22	9	-1
NS(=O)(=O)c1ccc(CCN2C(=O)CCC2=O)cc1	0.7	-2	10	2	9	-1
CCOc1ccc(/C=N/NC(=O)c2cc(-c3ccco3)nc3ccccc23)cc1	0.6	-8	-1	-1	5	-1
Cc1ccc(C2(c3noc(CN(C)CC4CCCCO4)n3)CCCC2)cc1 (configuration not stated)	0.7	0	-8	-12	-2	-15
N#Cc1ccc(-c2nc3ccc(Br)cc3c(=O)n2O)cc1	0.9	5	-6	23	2	-4
O=C(OCCOc1ccccc1)c1cccc(S(=O)(=O)N2CCOCC2)c1	2.8	3	-17	0	5	5
COC(=O)c1cc2sccc2n1CC(=O)Nc1cc(OC)cc(OC)c1	0.9	-1	-10	-4	1	-14
O=C(NC1CC1)C1CCCN(C(=O)Nc2ccc(F)cc2)C1 (configuration not stated)	-0.2	-4	16	-15	6	-12
CN(C)c1ccc(-c2cc(NC=O)c3ncc(-c4ccc(F)c(Cl)c4)n3c2)cc1	-0.6	-26	1	nt	?	-15

Exported with two lines to a compound: part of the list above.
Every second line gives: TRPML1 agonist	Six1-Eya2 inh	TRPML1 inh	TRPV1 potentiator	CtBP-E1A inh	D2 potentiator
- COc1ccc(OC)c(N(CC(=O)N2CCCCC2)S(=O)(=O)c2ccc(OC)c(OC)c2)c1
→ 0.0	2	21	-7	5	5
- CC1CC(C)CN(S(=O)(=O)N2CCC(C(=O)NCc3ccco3)CC2)C1 (configuration not stated)
→ -0.3	-3	-4	18	nt	-11

Record cards, as listed above. Order of values: TRPML1 agonist	Six1-Eya2 inh	TRPML1 inh	TRPV1 potentiator	CtBP-E1A inh	D2 potentiator
`CC(C)CN(C(=O)COC(=O)c1ccc2c(c1)OCO2)c1c(N)n(Cc2ccccc2)c(=O)[nH]c1=O` is listed with 2.9	4	4	0	-2	-10
`O=C(COC(=O)/C=C/c1ccc(Cl)cc1)NCCc1ccccc1` is listed with 1.5	0	-9	-5	-1	0
`CCOc1ccc(/C=N/NC(=O)c2cc(-c3ccco3)nc3ccccc23)cc1` is listed with 0.6	-8	-1	-1	5	-1
`Cc1ccccc1-n1c(SCC(=O)N2CCOCC2)nc(O)cc1=O` is listed with 0.1	-2	22	7	-2	-7
`N#Cc1ccc(-c2nc3ccc(Br)cc3c(=O)n2O)cc1` is listed with 0.9	5	-6	23	2	-4

(next part)
SMILES	TRPML1 agonist	Six1-Eya2 inh	TRPML1 inh	TRPV1 potentiator	CtBP-E1A inh	D2 potentiator
O=C(COC(=O)/C=C/c1ccc([N+](=O)[O-])cc1)NC(=O)NC1CCCCC1	2.4	-12	-3	nt	?	2
CCOC(=O)c1cc(-c2ccccc2)sc1NC(=O)C(C)Sc1nnc(C)s1 (configuration not stated)	2.1	-8	-2	0	-2	-8
CC(C)(C)C(=O)N=C1SC2CS(=O)(=O)CC2N1c1ccc2c(c1)OCO2 (configuration not stated)	-1.0	1	-13	2	4	7
O=C(Oc1cccc(OC(=O)N2CCCCC2)c1)N1CCCCC1	-0.6	-1	4	6	-2	-6
CN1CCC(N(C)CC(C)(C)NS(=O)(=O)c2ccccc2)CC1	0.3	4	-5	-4	7	-9
CCCOc1cccc(-c2cc(C(=O)N/N=C/c3ccccn3)c3ccccc3n2)c1	-0.3	-13	9	9	-24	5
N/C(=N\OC(=O)c1cnn(-c2ccccc2)c1C(F)(F)F)c1cc(C(F)(F)F)cc(C(F)(F)F)c1	0.1	-8	-7	-4	9	?
CCc1ccc(NC(=O)CSc2nnc(-c3n[nH]c4ccccc34)n2-c2ccccc2)cc1	0.7	5	-18	20	7	20
C[C@H](CO)N1C[C@H](C)[C@H](CN(C)C(=O)Cc2ccccc2)OCc2cnnn2CCCC1=O	-0.4	-13	58	nt	-2	-1
Nc1nc2n(n1)C(c1ccco1)CC(c1ccc(Cl)c(Cl)c1)N2 (configuration not stated)	3.0	-5	7	-8	-14	0
O=C(NNC(=O)c1ccccc1OCc1ccc(F)cc1)c1ccncc1	0.0	-4	-8	-18	6	-6
CCC(C)NC(=O)c1c(C)cc(=O)oc1C (configuration not stated)	1.0	-2	-4	11	0	-1
NC(=O)[C@@H]1CCCN1Cc1nc(Cc2cccc(C(F)(F)F)c2)no1	-0.6	0	18	2	5	0
Cc1cccc(N(C)C(=O)c2cc3cc4ccc(C)cc4nc3o2)c1	-0.7	-1	0	0	9	-1
OCC1CCCN(c2ncnc3scc(-c4ccccc4)c23)C1 (configuration not stated)	1.0	0	14	?	nt	-1
CCCCNC(=S)N(CCO)Cc1cc2cc3c(cc2[nH]c1=O)OCCO3	0.2	-1	-3	4	-1	0
COc1ccccc1CCC(=O)Nc1ccc2c(c1)c(=O)n(C)n2Cc1ccc(F)cc1	0.8	-5	8	nt	1	1
O=c1oc2ccccc2c2[nH]ccc12	-0.2	-17	-7	22	-19	-3
COc1ccc(CCN=C(NS(=O)(=O)c2ccccc2)c2ccccc2)cc1OC	-0.4	-21	-4	-18	-15	-4
CCN(CC)S(=O)(=O)c1ccc(Cl)c(C(=O)Nc2cc(C)nn2-c2ccccc2)c1	3.2	-9	-9	8	-8	-1
COc1cnc(-c2ccccn2)nc1Sc1ccc(C)cc1	2.7	?	35	-1	?	-4
COc1ccc2c(c1)oc(=O)c1c3ccccc3[nH]c21	-0.1	-3	-2	-7	-1	-1
COc1ccc(-c2cc(C(=O)N3CCCCCC3)no2)cc1	0.0	2	-8	-22	2	-4
c1ccc([C@H]2CC3C[C@@H](c4ccccc4)N2O3)cc1	-0.2	15	-24	24	2	-9
CC(C)(C)C(=O)Nc1ccc(/C=C/C(=O)c2ccco2)cc1	-1.4	6	0	-17	2	-11
O=C(Cc1cccc(NC(=O)C2CCCN(C(=O)C3CCCCC3)C2)c1)Nc1cccc(C(=O)N2CCCCC2)c1 (configuration not stated)	1.2	3	41	nt	0	-1
COc1ccc(NC(=S)N(CCN(C)C)C(C)c2ccco2)cc1Cl (configuration not stated)	-0.6	-8	-10	10	-17	-10
CC1(C)C([N+](=O)[O-])C(c2ccc(Cl)cc2)NC(c2ccc(Cl)cc2)C1[N+](=O)[O-] (configuration not stated)	3.4	-11	32	10	-8	0
COc1ccc(Cc2nc3ccc(C(=O)NCCSC)cc3o2)cc1	2.5	3	-23	nt	0	1
CC1(c2ccc3ccccc3c2)NC(=O)NC1=O (configuration not stated)	0.6	8	-22	-4	nt	-5
Cc1cccc(-c2noc(CCCC(=O)NC3CCCCC3)n2)c1	-0.6	3	6	-17	-5	1

Screening data as filed in PubChem BioAssay.
